Screening results deposited in PubChem by National Center for Advancing Translational Sciences (NCATS).
Vaccinia Venus – vaccinia inhibition (Venus reporter). Vaccinia virus Venus reporter expression, fluorescence. Potency, µM (highest dose often 36.5 µM), for the others: top-dose activity change, negative = inhibition, actives largely listed as inhibitors. 330,000 compounds, 0.46% hits; active means well fitted inhibition curve with a large enough effect; inconclusive means small, poorly fitted or top-dose-only effect; inactive means no such curve, though single readings can be large or run the other way; tested in A549 cells; also: nearly all actives have a fitted effect of over 30% in size; inactives centre near -10
VACV mCherry inh – vaccinia inhibition (mCherry reporter) | Potency, µM (top dose mostly 36.5 µM), without a hit: at the highest dose activity change, negative = inhibition, actives largely listed as inhibitors | 310,000 compounds, 0.63% hits | Vaccinia virus mCherry reporter infection, fluorescence; about a quarter of the inactives have no number; active = well fitted inhibition curve with a large enough effect; inconclusive = small, poorly fitted or top-dose-only effect; inactive = no such curve, though single readings can be large or run the other way; tested in A549 cells; also: nearly all actives have a fitted effect of over 35% in size; inactives centre near -10
The depositor's hits bear a star; i = inactive; u = inconclusive; x = not tested or not shown; [ ] = dose if it differs, or a comment. % is scaled to controls: 0 for no effect and ±100 for the full control effect; potency is read from the fitted curve at half-maximal effect.

SMILES | Vaccinia Venus | VACV mCherry inh
O=C(NCc1ccccc1)N1CCNCC1 | 7.3% | -8.7%
O=C(Nc1ccccc1)c1ccc2snnc2c1 | -1.8% | -10.2%
O=C(Nc1ccc2c(c1)OCO2)c1c(Cl)nc2sccn12 | -9.6% | x
COc1ccccc1C=NNC(=O)NN=Cc1ccccc1OC | -4.6% | u
Cc1ccccc1OCC(=O)Nc1sc2c(c1C#N)CC(C)(C)NC2(C)C | -16.4% | -23.8%
O=C(CN1CCN(Cc2ccccc2)CC1)Nc1ccccc1 | -10.1% | -2.7%
CCCCNC(=O)c1onc(CSc2cccc(Cl)c2)c1C(=O)O | -8.1% | i
Cc1ccnc2c1ccc1cccnc12 | u | 4.47µM*
COc1ccc([C@H]2CC(=O)C[C@@H](CCn3nnc4ccccc43)O2)cc1 | 1.6% | -5.2%
CCN(CC)C(=O)Oc1c(Cl)cc(Cl)c2cccnc12 | -25.7% | u
CCC(=O)NCCc1nc2cc(NC(=O)COc3ccccc3)ccc2n1C | -6.3% | -20.7%
CCOc1ccc(NC(=O)N2CCC(n3c(C)nc4cccnc43)CC2)cc1 | -4.8% | 2.0%
Cc1cc(CNC(=O)COC(=O)c2ccc(Cl)c(N)c2)cc(C)c1O | -13.7% | u
O=C(c1cccc([N+](=O)[O-])c1)C12CN3CN(CN(C3)C1)C2 | -6.4% | -16.8%
Cc1ccc(S(=O)(=O)N2CCN(c3nc(-n4cncn4)nc4ccccc34)CC2)cc1 | -17.6% | -0.2%
CCN1C=C(Cc2cccs2)C2=C(C1)C(c1cccs1)C(C#N)=C(N)O2 (stereo not drawn) | -14.5% | i
CCN(CC)CCOc1ccc2c(c1)C(=NO)c1cc(OCCN(CC)CC)ccc1-2 | 3.55µM* | 8.91µM*
CCOc1ccccc1NC(=O)CN(C)S(=O)(=O)c1ccc(C(=O)N2CCOCC2)s1 | 3.5% | -6.7%
S=c1sc(SCCOc2ccccc2)nn1-c1ccccc1 | -14.0% | i
CCN1C(=O)N(C)[C@@H](c2ccccc2)C(C(=O)OC)=C1C | -3.2% | i
O=[N+]([O-])c1ccc(N2CCOCC2)c([N+](=O)[O-])c1 | -3.0% | i
Cc1cccc(C=Nc2ccc3c4c(cccc24)CC3)c1O | -13.5% | -5.3%
O=C(Nc1ccc(Cl)cc1)c1csc(-c2ccncc2)n1 | -2.7% | u
CN(C)CCCNC(=O)c1cc(C(=O)C2CCCCC2)c[nH]1 | -2.2% | -24.2%
CCC1=C(OC(=O)N(CC)CC)N2C(=O)OC(=NCC(=O)OC)[C@]2(C)[C@H]2C1=CC[C@H]1C(=O)N(CC(=O)OC)C(=O)[C@H]12 | -4.6% | i
COC(CNC(=O)c1cc(Sc2nnc(C)s2)nc2ccccc12)OC | -4.1% | -13.6%
CCC(=O)Nc1sc(C(=O)OC)c(C)c1C(=O)OC | -13.2% | i
Fc1cc(F)c2nc(N3CCOCC3)sc2c1 | -17.6% | -22.1%
CCCCNS(=O)(=O)c1ccc(Br)cc1N1CCC[C@H]1CO | -17.8% | i
Cc1ccc(S(=O)(=O)N2CCN(C(=O)c3ccccc3)C2)cc1[N+](=O)[O-] | -16.3% | -9.7%
CCOc1ccc(C(=O)NCC(=O)OCC(=O)N2CCC(C)CC2)cc1 | 10.4% | -5.8%
C=C1C(=O)O[C@H]2C[C@H]1[C@@H](OC(C)=O)C/C(C)=C/CC/C(C)=C\CC[C@]2(C)O | 10µM* | 10µM*
COc1ccc(NC(=O)c2cc(C)no2)cc1Cl | -10.8% | i
O=C(O)C1OC2OC3(CCCCC3)OC2C2OC3(CCCCC3)OC12 (stereo not drawn) | -6.5% | -10.8%
Cc1cccc(NC(=O)c2nc[nH]c2C(=O)N2CCN(c3ccccc3)CC2)c1 | -2.5% | u
CN(C)Cc1ncccc1Oc1nc2cc(-c3cccc(Cl)c3)sc2c(=O)n1C | -5.5% | -6.3%
CCCc1cc(=O)n2c([nH]c3ccccc32)c1C#N | -8.8% | -10.2%
Cc1ccc(CSc2nnc(-c3ccc(NS(=O)(=O)c4ccccc4)cc3)o2)cc1 | -12.1% | -20.9%
Nc1nc(F)nc2c1ncn2[C@@H]1O[C@H](CO)[C@@H](O)[C@H]1O | 1.12µM* | 1µM*
CC(=O)N[C@H]1C[C@@H]1c1ccccc1 | -15.7% | x
CCOC(=O)Nc1csnn1 | -3.4% | -8.0%
O=C(NC1CCN(Cc2ccccc2)CC1)c1ccc2c(c1)[nH]c(=O)n2Cc1ccc(F)cc1 | u | u
COc1ccc(-c2nc(C#N)c(N3CCOCC3)o2)cc1OC | -29.4% | x
O=C(COc1cccc2cccnc12)N/N=C/c1cccn1-c1ccc(F)cc1 | -8.8% | -11.1%
Cc1cccc2c(=O)cc(CSc3ccccc3NC(=O)C(C)(C)C)[nH]c12 | -5.0% | -4.7%
COC(=O)CN(c1cc(Cl)ccc1OC)S(=O)(=O)c1ccc(C)cc1 | -27.5% | -3.5%
CC(C)Oc1ccc(Cc2c(O)nc(NCCCN(C)C)[nH]c2=O)cc1 | -8.4% | x
O=C(OCc1ccc(Br)cc1)c1cnc(Cl)c(Cl)c1 | -16.4% | -2.8%
c1ccc(Cc2nnc(-c3ccccc3)o2)cc1 | -18.1% | -6.4%
O=C(Nc1ccccc1)c1ccc(-c2ccc(F)cc2)s1 | -12.5% | -0.8%

In the list so far, 5 contain an aryl methoxy group.
SMILES | Vaccinia Venus | VACV mCherry inh
COc1ccccc1C=NNC(=O)NN=Cc1ccccc1OC | -4.6% | u
COc1ccc([C@H]2CC(=O)C[C@@H](CCn3nnc4ccccc43)O2)cc1 | 1.6% | -5.2%
COc1ccc(NC(=O)c2cc(C)no2)cc1Cl | -10.8% | i
COc1ccc(-c2nc(C#N)c(N3CCOCC3)o2)cc1OC | -29.4% | x
COC(=O)CN(c1cc(Cl)ccc1OC)S(=O)(=O)c1ccc(C)cc1 | -27.5% | -3.5%

The list continues.
SMILES | Vaccinia Venus | VACV mCherry inh
CCCCCCCC(=O)Nc1ccc(S(=O)(=O)Nc2nccs2)cc1 | -4.1% | -14.7%
CCN(CC)S(=O)(=O)c1ccc2c(c1)c(=O)c(C(=O)NCc1ccc(Cl)cc1)cn2C | -21.6% | u
Cn1c(SCC(=O)NCc2cccs2)nnc1-c1ccc(O)cc1 | 5.7% | i
Cc1cnc(C(=O)OCC(=O)Nc2ccccc2[N+](=O)[O-])cn1 | -3.3% | -17.1%
COc1cc(/C=N/NC(=O)c2cccc([N+](=O)[O-])c2)ccc1OC(=O)c1ccco1 | -1.5% | 0.3%
Cc1cccc(C(=O)N2CCN(c3ccc(C(F)(F)F)cn3)CC2)c1C | u | x
CC(=O)Nc1sc(NC(=O)c2ccccc2)nc1-c1cccs1 | -2.0% | i
COc1ccc(N2CC(=O)N(c3ccccc3)C2=S)cc1 | -1.0% | i
CCNC(=O)c1cc2c(c(-c3cccc(-c4ccccc4F)c3)n1)[C@H](CCO)N(C(=O)CC)C2 | -24.0% | -29.8%
CCCCC(=O)NC1(C(F)(F)F)NC(=O)N(C)C1=O (stereo not drawn) | -8.3% | -18.5%
Cc1ccc(CNC(=O)C(C)n2c(=O)cc(-c3ccccc3)c3c(C)nn(C)c32)cc1 (stereo not drawn) | 11.2% | -2.2%
COc1cccc(C2=CC(=O)CCC2)c1OC | -6.6% | i
O=C(CCNc1cc(Cl)cc(Cl)c1)c1cccs1 | -24.1% | i
O=[N+]([O-])c1ccc(C(O)CNC(=S)Nc2ccccc2)cc1 (stereo not drawn) | -4.2% | -5.8%
Cc1cc(C)[n+](C)c2ccccc12 | -10.0% | 4.3%
Cc1ccc(NC(=O)CCSCCC(=O)Nc2ccc(C)c(C)c2)cc1C | -16.0% | i
Cc1ccccc1C(=O)Nc1cccc(C(=O)OCc2cc(=O)n3ccsc3n2)c1 | -10.0% | -19.3%
COc1ccc(N2CCCC2)c(NC(=O)COc2ccccc2Cl)c1 | 0.7% | 8.4%
CN(C)CC(O)COC(c1ccccc1)c1ccccc1 (stereo not drawn) | -7.3% | -0.3%
Cn1c(SCC(=O)NC2CCCCC2)nc2c(c1=O)SCC2 | -2.1% | -6.3%
Cc1cc(=O)[nH]c(SCc2nc3ccc([N+](=O)[O-])cc3[nH]2)n1 | 0.9% | -1.8%
COc1ccc(C(C)=O)cc1CSc1nncn1-c1ccccc1 | -15.5% | -19.6%
CCC1=NN2C(=N)/C(=C/c3ccc(OS(=O)(=O)c4ccc(C)cc4)c(OC)c3)C(=O)N=C2S1 | 6.1% | -23.2%
Nc1cccc(S(=O)(=O)Nc2ccc(SC(F)F)cc2)c1 | 0.0% | -8.7%
CC(=O)c1cccc(N(CC(=O)Nc2cccnc2)S(C)(=O)=O)c1 | 3.9% | -13.0%
Cn1cc(-c2cc3n(n2)CCC(=O)N3CC(=O)NCc2ccc(Cl)cc2)c2ccccc21 | 1.0% | -17.0%
CC(C)COc1ccc(C(=O)Nc2ccc(NC(=O)c3ccco3)c(Cl)c2)cc1 | -17.4% | x
COc1cc([C@@H]2CC=C(C(=O)O)[C@H](c3cccc(Cl)c3)N2S(=O)(=O)c2ccc(C)cc2)cc(OC)c1OC | -9.7% | -13.1%
Cc1ccc(Cn2ccc(O)c(Cc3ccccc3)c2=O)cc1 | -5.6% | i
N#CC1=C(Nc2ccccc2)SC=C(c2ccc(Br)cc2)N=C1N1CCOCC1 | -13.0% | -7.1%

5 consecutive records already listed:
SMILES | Vaccinia Venus | VACV mCherry inh
Cc1cc(=O)[nH]c(SCc2nc3ccc([N+](=O)[O-])cc3[nH]2)n1 | 0.9% | -1.8%
COc1ccc(C(C)=O)cc1CSc1nncn1-c1ccccc1 | -15.5% | -19.6%
CCC1=NN2C(=N)/C(=C/c3ccc(OS(=O)(=O)c4ccc(C)cc4)c(OC)c3)C(=O)N=C2S1 | 6.1% | -23.2%
Nc1cccc(S(=O)(=O)Nc2ccc(SC(F)F)cc2)c1 | 0.0% | -8.7%
CC(=O)c1cccc(N(CC(=O)Nc2cccnc2)S(C)(=O)=O)c1 | 3.9% | -13.0%

(cont.)
SMILES | Vaccinia Venus | VACV mCherry inh
O=C(Oc1ccccc1-c1nnco1)c1ccccc1 | -4.5% | -12.8%
Cc1cc(C)cc(OCC(=O)NC2CCCc3ccccc32)c1 (stereo not drawn) | -4.7% | -16.1%
COc1ccc(-c2[nH]c(-c3ccc(C)cc3)nc2SCC(=O)NC2CCCC2)cc1 | u | u
COc1ccc(/C=C/C(=O)OCC(=O)NC(C)CCc2ccccc2)cc1 (stereo not drawn) | -4.2% | -18.4%
COc1cc(/C=N\Nc2nc3ccccc3o2)cc(OC)c1OC | u | u
Cc1ccccc1C(=O)OCc1cc(=O)n2nc(-c3cccs3)sc2n1 | -10.6% | i
CC1CN(C(=S)NC(=O)C2CCCCC2)CC(C)O1 (stereo not drawn) | -9.2% | -14.1%
CCCC[C@H]1C(=O)O[C@H](C)[C@H](NC(=O)c2cccc(NC=O)c2OC)C(=O)O[C@@H](C)[C@@H]1OC(=O)CC(C)C | -9.1% | -13.8%
COc1ccc(OC)c(NC(=O)Cn2c(=O)c3cccn3c3ccccc32)c1 | -2.5% | 3.4%
Cc1ncc(CN2CCC(C(=O)Nc3ccc(Oc4cccnc4)cc3)CC2)cn1 | -11.3% | i
CCOC(=O)C1CCN(CC(O)COc2ccc(C(C)=O)cc2)CC1 (stereo not drawn) | 4.4% | 12.2%
O=C(CS(=O)(=O)c1cn(Cc2ccccc2Cl)c2ccccc12)N1CCOCC1 | -20.0% | -9.3%
Cc1ccccc1-n1c(=O)cc(N2CCN(C(=O)c3ccco3)CC2)[nH]c1=O | -9.2% | i
CC(C)(CN=C1NS(=O)(=O)c2ccccc21)CNC(=O)CN1C(=O)c2ccccc2C1=O | 3.4% | x
CC(OC(=O)C1CCN(S(=O)(=O)c2ccccc2C(F)(F)F)CC1)C(=O)N(C)Cc1ccccc1 (stereo not drawn) | -8.9% | -11.5%
O=C(NCCCc1ccccc1)c1cccc(NC(=O)C2CCCCC2)c1 | -25.8% | i
Cc1ccc(C(=O)CC(=O)c2cc(Cl)ccc2O)cc1 | -26.6% | i
COC(=O)C1=C(C)N(c2ccccc2)/C(=C/c2ccco2)C1=O | -12.8%[7.34 µM] | i[7.34 µM]
Cc1nnc(C)n1/N=C/c1ccc(-c2ccccc2Cl)o1 | -10.5% | -16.5%
Cc1onc(-c2c(F)cccc2Cl)c1C(=O)N(C)CCc1ccccn1 | -15.4% | -1.1%
COc1cc2nc(N3CCCN(C)CC3)nc(N(C)C3CCN(C)CC3)c2cc1OC | 10µM* | 10µM*
c1ccc(CNCCCn2cnc3c(OCc4ccccc4)ncnc32)cc1 | -27.0% | u
Cc1ccc(NC(=O)C(C)OC(=O)CCNS(=O)(=O)c2ccc(C)cc2)cc1 (stereo not drawn) | -8.4% | -5.9%
Cn1c(=O)c2c(ncn2CCC(=O)N/N=C/c2ccccc2)n(C)c1=O | 0.1% | i
N#Cc1cccc(NC(=O)CNc2cc(S(=O)(=O)N3CCOCC3)ccc2N2CCCC2)c1 | -1.2% | u
NS(=O)(=O)c1ccc(CCNC(=O)C(=O)C2C(=O)Nc3ccccc32)cc1 (stereo not drawn) | -9.2% | -14.9%
CC1C(=O)NN=C1C(=O)N/N=C\C(Br)=C\c1ccccc1 (stereo not drawn) | -7.9% | i
Cc1cccc(-c2nc3sc(C)cc3c(=O)o2)c1 | -3.3% | i
CC(=O)c1sc2nc(C)c3c(c2c1N)CCCC3 | -13.8% | 13.2%
COc1ccc(-c2nn(-c3ccccc3)cc2/C=N/Nc2cccc(C(=O)O)c2)cc1 | -6.2% | i
